Source: PubChem BioAssay (Center for Chemical Genomics, University of Michigan)
TAR Tat displ – HIV-1 TAR-Tat binding disruption. HIV-1 TAR RNA, Tat peptide displacement FRET; stronger effect = higher value. z-score (test concentration not listed). actives 0.6% (n = 100,000);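 further: score is relative to mean and SD of negative controls; some compounds called inactive have numbers as strong as hits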
CDC25B-CDK2 inh – human CDC25B-CDK2/CyclinA binding inhibition; P30305+P24941; HTRF CDC25B-CDK2/CyclinA binding, anti-His/anti-Flag; stronger effect = higher value; z-score (concentration not given with the values); actives 0.72% (n = 94,000); AID 1259370;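 further: score is relative to mean and SD of negative controls; strong numbers were not always called active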
Numbers without * were called inactive; nt = not tested or not shown.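 How the source made its calls: active means z-score from 3 up in half or more of its runs; inactive means the rest.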

SMILES | TAR Tat displ | CDC25B-CDK2 inh
CC1=C(C#N)C(c2cccc(F)c2)C2=C(CC(c3ccccc3)CC2=O)N1 (stereo not drawn) | 2.87 | -0.23
CC(=O)N1N=C(c2cccc3ccccc23)OC1c1cccnc1 (stereo not drawn) | -1.18 | nt
O=C(CSCCOc1ccccc1)NCc1ccncc1 | nt | -2.28
CCCCOC(=O)NS(=O)(=O)c1sc(CC(C)C)cc1-c1ccc(Cn2c(CC)nc3c(C)cc(C)nc32)cc1 | nt | -2.91
CN1CCN(C(c2cccs2)N2CCN(C)CC2)CC1 | nt | -2.19
COc1ccccc1-c1noc(CSc2nc3ccccc3[nH]2)n1 | -0.8 | -1.43
Cc1ccc(Oc2nc3ccccc3n3c(=O)[nH]nc23)cc1 | 0.7 | -0.79
CCOC(=O)c1c(C)[nH]c(CN(Cc2ccc3c(c2)OCO3)S(=O)(=O)c2cn(C)cn2)c1C | -0.76 | nt
O=C(NCc1cccs1)C(=O)NCC(c1ccco1)S(=O)(=O)c1ccc(Cl)cc1 (stereo not drawn) | 0.19 | nt
O=C(CSc1nccn1C1CCCCC1)Nc1ccc(Br)cc1 | 1.2 | nt
O=C1CCSc2ccc(S(=O)(=O)Nc3ccc(Cl)cn3)cc2N1 | 2.06 | nt
CC(=O)c1ccc(N2CCCCC2)c(NC(=S)Nc2cc(Cl)ccc2Cl)c1 | nt | -1.87
CC(=O)Nc1ccc2c(c1)OCCOCCOc1cc(NC(C)=O)ccc1OCCOCCO2 | 2.02 | -1.3
CCN(CC)S(=O)(=O)c1ccc2c(c1)N(CC(=O)N1CCCC1)CCS2 | 0.59 | nt
CCOC(=O)c1[nH]c(C)c(C(=O)NCCN2CCCCC2C)c1C (stereo not drawn) | nt | -0.9
C=CCn1c(O)c(C2=Nc3ccccc3SC(c3ccc(Br)cc3)C2)c(=O)[nH]c1=O (stereo not drawn) | 0.56 | -2.42
Cc1ccn2c(Nc3ccc4c(c3)OCCO4)c(-c3ccc(N4CCOCC4)cc3)nc2c1 | 1.53 | -1.45
CCC(=O)N1c2ccccc2-c2nnc(SC)nc2OC1c1ccccc1 (stereo not drawn) | -0.2 | -0.54
CCOC(=O)C1=C(C(F)(F)F)Nc2ncnn2C1c1ccc(Br)cc1 (stereo not drawn) | 2.4 | nt
Cc1cccn2c(=O)c(C(=O)NCC(C)C)c(O)nc12 | -0.89 | -1.86
Nc1ccccc1C(=O)NCCCn1ccnc1 | nt | -1.16
O=C(c1ccc(CS(=O)c2ccc(Cl)cc2)o1)N1CCN(c2ccc(Cl)cc2)CC1 (stereo not drawn) | 0.78 | nt
Cc1[nH]nc2c1C(c1ccccc1)N(c1ccc(Br)cc1)C2=O (stereo not drawn) | -0.55 | nt
CC(C)CNC(=O)N1CCN(c2nc3cc(F)ccc3n3cccc23)CC1 | 1.66 | nt
Cc1ccc(/C(O)=C2\C(=O)C(=O)N(c3ccccn3)C2c2ccc(F)cc2)cc1 (stereo not drawn) | 1.98 | -0.92
O=C(c1ccc2c(=O)n3c(nc2c1)CCCC3)N1CC=C(c2ccccc2)CC1 | 1.59 | nt
COc1ccc(Cc2nc(-c3ccc(C)cc3)no2)cc1OC | -0.31 | -0.5
COc1ccc2[nH]cc(/C=C/c3nc4ccccc4c(=O)n3-c3ccccc3)c2c1 | -0.97 | -0.14
Cc1cc(C)cc(OC(C)C(=O)Nc2nonc2-c2ccc(Br)cc2)c1 (stereo not drawn) | 1.66 | -0.05
O=S(=O)(NCc1ccc(F)cc1)c1ccc(-c2cnc(C3CC3)o2)cc1 | 1.98 | nt
CCCCSc1nc2c(c(=O)[nH]1)C(c1ccc(F)cc1)C(C(=O)OCC)=C(C)N2 (stereo not drawn) | 0.33 | -0.16
O=C1COc2ccc(S(=O)(=O)NC3CS(=O)(=O)CC3Cl)cc2N1 (stereo not drawn) | 2.35 | nt
O=c1c2nnn(-c3cccc(Cl)c3)c2ncn1Cc1ccccc1F | nt | -0.48
Cc1onc(-c2c(Cl)cccc2Cl)c1NC(=O)Nc1ccc(N(C)C)c(Cl)c1C#N | nt | 0.09
COc1cc(Nc2c(-c3ccc(Cl)cc3)c(=O)c2=O)cc(OC)c1 | -0.9 | nt
Cc1ccccc1NS(=O)(=O)c1ccc2c(c1)[C@H]1C=CC[C@H]1[C@@H](c1ccc(C(=O)O)cc1)N2 | nt | 0.15

Among those listed so far, these have an aryl methoxy group:
SMILES | TAR Tat displ | CDC25B-CDK2 inh
COc1ccccc1-c1noc(CSc2nc3ccccc3[nH]2)n1 | -0.8 | -1.43
COc1ccc(Cc2nc(-c3ccc(C)cc3)no2)cc1OC | -0.31 | -0.5
COc1ccc2[nH]cc(/C=C/c3nc4ccccc4c(=O)n3-c3ccccc3)c2c1 | -0.97 | -0.14
COc1cc(Nc2c(-c3ccc(Cl)cc3)c(=O)c2=O)cc(OC)c1 | -0.9 | nt

(cont.)
SMILES | TAR Tat displ | CDC25B-CDK2 inh
COCCNC(=O)CCC(=O)N1CCCn2nc(-c3cccn3C)cc21 | 0.67 | nt
O=C(NCC1COc2ccccc2O1)c1cc(Cl)sc1Cl (stereo not drawn) | nt | -0.63
Cc1cccc(N2CCN([C@H]3CS(=O)(=O)C[C@@H]3S(=O)(=O)c3ccccc3)CC2)c1C | -0.77 | -1.11
c1ccc2c(c1)c(SC1CCCCC1)nn1nnnc21 | 1.73 | -0.93
O=C1CC(c2ccc3c(c2)OCO3)Sc2nc3ccccc3n21 (stereo not drawn) | 1.26 | -1.16
CCN(CC)C(=O)c1oc2ccccc2c1NC(=O)C(C)C | 0.82 | nt
O=c1c2c(-c3ccc(Cl)cc3)noc2ncn1Cc1ccccc1F | 0.67 | nt
CS(=O)c1ccccc1[N+](=O)[O-] (stereo not drawn) | nt | -1.58
COc1ccc(C2N3CC4(C)CN2CC(C)(C3)C4)cc1OC (stereo not drawn) | -0.72 | 0.1
O=C(NNC(=O)c1cccs1)c1csc(-c2ccc(Cl)c(Cl)c2)n1 | nt | -5.4
CC(C)/C(O)=C1/C(=O)O[C@@H](c2ccoc2)[C@]2(C)C(O)[C@@H](O)[C@@]34OC5(C)OC67CC(C)(C(O)[C@]6(O)[C@@H](O)[C@]3(O5)C12)[C@H](CC(=O)O)[C@]74C (stereo partly drawn) | 0.2 | nt
O=C1CSC(c2cccs2)N1c1ccccc1 (stereo not drawn) | nt | -0.43
CC(C)[C@H](C(=O)Nc1ccc(C(=O)NO)cc1)c1ccccc1 | 1.42 | nt
CNC(=O)c1c(NC(=O)c2ccc(S(=O)(=O)N3CCCC3)cc2)sc2c1CCC2 | -4.23 | nt
Cn1cnnc1SCC(=O)Nc1cc(C(F)(F)F)cc(C(F)(F)F)c1 | nt | -0.98
Cc1nn(-c2ccccc2)c2c1C(c1ccco1)C(C#N)=C(N)O2 (stereo not drawn) | -0.6 | -1.73
Cc1ccc2c(CC(=O)Nc3sc4c(c3C(=O)NCC3CCCO3)CCC4)coc2c1C (stereo not drawn) | 1.3 | -1.05
CCn1cc(C2CC(=O)NC2=O)c2ccccc21 (stereo not drawn) | 0.73 | -0.91
CN1CCN(c2nc(Nc3ccc(Cl)cc3)c3cnn(C)c3n2)CC1 | 0.53 | nt
CCC(=O)Oc1ccc2c(C(F)(F)F)cc(=O)oc2c1C | nt | 1.06
Cc1cccc(Cl)c1N1C(=O)C(CC(=O)O)SC1=NC1CCCC1 (stereo not drawn) | nt | 0.15
CC1=C(C(=O)OC(C)C)C(c2ccc(F)cc2)C2=C(CC(c3cccs3)CC2=O)N1 (stereo not drawn) | -1.27 | -1.31
Cc1nc(N2CCN(C)CC2)ncc1C(=O)NCCCc1ccco1 | 1.1 | nt
CCN(CC)c1ccc(Nc2c(-c3ccc(Cl)cc3)c(=O)c2=O)c(C)c1 | -3.75 | nt

Exported with tabs: entries from further up.
canonical_smiles	TAR Tat displ	CDC25B-CDK2 inh
Cc1nn(-c2ccccc2)c2c1C(c1ccco1)C(C#N)=C(N)O2 (stereo not drawn)	-0.6	-1.73
Cc1ccc2c(CC(=O)Nc3sc4c(c3C(=O)NCC3CCCO3)CCC4)coc2c1C (stereo not drawn)	1.3	-1.05
CCn1cc(C2CC(=O)NC2=O)c2ccccc21 (stereo not drawn)	0.73	-0.91
CN1CCN(c2nc(Nc3ccc(Cl)cc3)c3cnn(C)c3n2)CC1	0.53	nt

Following part:
SMILES | TAR Tat displ | CDC25B-CDK2 inh
CCCc1c(C)[nH]c2nc3ccccc3n2c1=O | 0.97 | -1.41
CCOC(=O)Cn1c(=O)oc2cc(S(=O)(=O)NCc3ccccn3)ccc21 | nt | -1.36
Cc1ccc(C2=NS(=O)(=O)N(C)C(C(=O)Nc3sc4c(c3C#N)CCC4)=C2)cc1 | 1.23 | -2.28
O=C(CN1N=C(c2ccccc2)c2cc(Cl)ccc2S1(=O)=O)NCc1ccco1 | 0.83 | nt
CCSc1ncc2c(=O)n(CC(=O)NC(C)CC)cnc2n1 (stereo not drawn) | 0.81 | nt
CCOC(=O)c1sc(N)c(C(=O)OC)c1C | 1.02 | -3.44
C=CCc1ccc(OCc2ccc(C(=O)OC)cc2)c(OC)c1 | 0.63 | -1.58
Clc1ccc(-n2ncc3c(N4CCc5ccccc54)ncnc32)cc1 | nt | -3.05
COc1ccc(Cc2nnc3n2N=C(c2ccc(C)c(C)c2)CS3)cc1OC | 0.73 | nt
COc1ccc(-c2csc3ncnc(Oc4cccc5cccnc45)c23)cc1 | -1.35 | -0.98
Clc1ccccc1-c1nnc(-c2ccncc2)o1 | 0.55 | 0.63
